Assay outcomes as filed in PubChem BioAssay.
Polio RdRp inh = inhibitors of poliovirus RNA polymerase binding and polymerization | P03300 | poliovirus polymerase elongation, fluorescence polarization; active compounds read low | % elongation, % (compound at 16.7 µg/mL) | actives 0.66% (n = 150,000) | AID 588519; in the data active means % elongation below about 90%; further: some results filed as inactive read as strong as hits
Target sequence (P03300 1749-2209 limits assumed): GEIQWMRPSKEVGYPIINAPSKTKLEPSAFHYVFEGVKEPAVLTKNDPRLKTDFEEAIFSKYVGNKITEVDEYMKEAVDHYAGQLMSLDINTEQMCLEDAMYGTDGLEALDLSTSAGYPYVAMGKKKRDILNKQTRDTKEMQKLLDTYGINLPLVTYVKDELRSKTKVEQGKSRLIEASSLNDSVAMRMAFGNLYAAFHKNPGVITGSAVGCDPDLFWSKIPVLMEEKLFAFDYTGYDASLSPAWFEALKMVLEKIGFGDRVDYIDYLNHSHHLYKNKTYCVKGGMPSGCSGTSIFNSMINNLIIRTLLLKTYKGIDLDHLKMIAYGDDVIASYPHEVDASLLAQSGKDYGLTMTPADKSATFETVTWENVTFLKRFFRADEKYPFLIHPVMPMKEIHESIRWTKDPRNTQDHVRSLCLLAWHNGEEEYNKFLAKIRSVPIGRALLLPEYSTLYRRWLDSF
Polio RdRp inh intensity = further read-out of Polio RdRp inh, marked with its call; % elongation; measured here: total intensity read-out; formula for this scale not given here;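 total fluorescence in place of polarization; lower means less elongation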
Starred values were filed as active, the others as inactive. Some of the compounds tested, so the mix of outcomes need not match the whole.

SMILES	Polio RdRp inh	Polio RdRp inh intensity
COc1cccc(OC)c1C(=O)Nc1ccc(-c2nc3ncccc3o2)cc1	107	107
Cc1ccc(OCc2ccc(-c3nc(C#N)c(N4CCN(c5cccc(Cl)c5)CC4)o3)o2)cc1	102	107
COc1ccccc1/C=C/c1nc(C#N)c(NCC(C)C)o1	109	114
Cc1ccc(Nc2ncc(C(=O)N3CCN(c4cccc(Cl)c4)CC3)c3ccccc23)cc1Cl	105	103
Cc1ccc(Nc2nnc(-c3ccc(C)c(S(N)(=O)=O)c3)c3ccccc23)cc1	100	95
CC1=C(C(=O)Nc2cccnc2)C(c2ccc(F)cc2)n2nc(-c3cccc(C)c3)nc2N1 (stereo not given)	107	110
COc1ccc(NC(=O)CSc2nc(-c3ccc(OC)cc3)[nH]c2-c2ccc(OC)cc2)cc1	113	112
COc1ccc(CCNC(=O)Cn2c(C)c3cnn(-c4ccccc4)c(=O)c3c2C)cc1OC	109	109
COc1ccc(CCNC(=O)c2cc(-c3ccc(C)cc3)nc3n[nH]c(-c4ccc(F)cc4)c23)cc1OC	104	100
O=C(CNC(=O)c1ccc(F)cc1)OCc1cc(=O)n2nc(C3CCCCC3)sc2n1	114	110
Cc1ccn2c(=O)c(C(=O)NC(C)c3ccccc3)c(O)nc2c1 (stereo not given)	110	111
O=C(Nc1cccc(Cl)c1Cl)c1cc(S(=O)(=O)N2CCC3(CC2)OCCO3)ccc1F	110	110
CC(=O)c1cccc(NC(=O)c2ccc3c(c2)c(C)c(C)n3Cc2ccc(Cl)cc2)c1	114	112
Cc1ccc(Cl)cc1NC(=O)CSC1=Nc2ccccc2C2=NC(Cc3ccccc3)C(=O)N12 (stereo not given)	108	113
CC(C)Oc1ccc(CNC(=O)c2ccc3c(c2)nc2n3CCOC2)cc1	116	112

An excerpt from above in order of formula weight, descending:
SMILES	Polio RdRp inh	Polio RdRp inh intensity
COc1ccc(CCNC(=O)c2cc(-c3ccc(C)cc3)nc3n[nH]c(-c4ccc(F)cc4)c23)cc1OC	104	100
Cc1ccc(Nc2ncc(C(=O)N3CCN(c4cccc(Cl)c4)CC3)c3ccccc23)cc1Cl	105	103
Cc1ccc(Cl)cc1NC(=O)CSC1=Nc2ccccc2C2=NC(Cc3ccccc3)C(=O)N12 (stereo not given)	108	113
COc1ccc(NC(=O)CSc2nc(-c3ccc(OC)cc3)[nH]c2-c2ccc(OC)cc2)cc1	113	112
Cc1ccc(OCc2ccc(-c3nc(C#N)c(N4CCN(c5cccc(Cl)c5)CC4)o3)o2)cc1	102	107
COc1ccc(CCNC(=O)Cn2c(C)c3cnn(-c4ccccc4)c(=O)c3c2C)cc1OC	109	109
O=C(CNC(=O)c1ccc(F)cc1)OCc1cc(=O)n2nc(C3CCCCC3)sc2n1	114	110
CC1=C(C(=O)Nc2cccnc2)C(c2ccc(F)cc2)n2nc(-c3cccc(C)c3)nc2N1 (stereo not given)	107	110
CC(=O)c1cccc(NC(=O)c2ccc3c(c2)c(C)c(C)n3Cc2ccc(Cl)cc2)c1	114	112
Cc1ccc(Nc2nnc(-c3ccc(C)c(S(N)(=O)=O)c3)c3ccccc23)cc1	100	95
COc1cccc(OC)c1C(=O)Nc1ccc(-c2nc3ncccc3o2)cc1	107	107
CC(C)Oc1ccc(CNC(=O)c2ccc3c(c2)nc2n3CCOC2)cc1	116	112
Cc1ccn2c(=O)c(C(=O)NC(C)c3ccccc3)c(O)nc2c1 (stereo not given)	110	111
COc1ccccc1/C=C/c1nc(C#N)c(NCC(C)C)o1	109	114

Further entries:
SMILES	Polio RdRp inh	Polio RdRp inh intensity
CC(=O)N1CCCc2cc(S(=O)(=O)N3CCC(C(=O)N(Cc4ccccc4)C(C)C)CC3)ccc21	109	108
CCOC(=O)C1=C(CN2CCN(c3ccccc3)CC2)NC(=O)NC1c1ccc(C)cc1 (stereo not given)	105	108
CCCCn1c(C(C)NC(=O)c2ccccc2)nc2ccccc21 (stereo not given)	104	110
COc1cc2c(=O)c(S(=O)(=O)c3ccc(F)cc3)cn(Cc3ccc(Cl)cc3)c2cc1OC	101	103
CCc1ccc2oc(C(=O)Nc3ccccc3OC)cc(=O)c2c1	110	113
COc1ccc(C(=O)Nc2ccc3oc(-c4cc(Cl)ccc4Cl)nc3c2)cc1Br	112	114
Cc1cccc(C(=O)Nc2c(C(=O)NCc3ccc(Cl)cc3)sc3nc(C)cc(C)c23)c1	101	102
COc1ccc(/C=C\c2onc(C)c2S(=O)(=O)N2CCC(C(=O)Nc3ccc(F)cc3F)CC2)cc1	110	110
COc1cccc(-n2c(-c3ccc(C)cc3)cc3c2CC(C)(C)CC3=O)c1	106	105
CCc1ccc2occ(CC(=O)NCc3ccccc3)c2c1	113	111
COc1ccccc1NC(=O)CSc1nc2nccnc2c(=O)n1CCc1c[nH]c2ccccc12	102	104
CC(C)(C)c1ccccc1NC(=O)CSc1nc(-c2cccs2)cc(C(F)(F)F)n1	102	106
Cc1ccc(C)c(CN2C(=O)c3ccccc3S(=O)(=O)c3ccc(C(=O)N4CCCCC4)cc32)c1	106	104
Cn1c(=O)cc(OCC(=O)N2CCN(c3ccc(F)cc3)CC2)c2ccccc21	107	109
Cc1cc(C)n(-c2nc3cc(Cl)ccc3nc2N2CCN(c3cccc(C)c3C)CC2)n1	102	111
O=C(Nc1ccccc1C(=O)O)c1cccc(S(=O)(=O)N2CCCC2)c1	103	106
CCOc1ccc(NC(=O)CN2CCN(CC(=O)Nc3ccc(F)cc3F)CC2)cc1	108	107
Cc1ccc2oc3c(c(=O)c2c1)C(c1cccc(O)c1)N(Cc1ccccc1Cl)C3=O (stereo not given)	103	103
Cc1ccc(CNC(=O)CC(C)S(=O)(=O)c2cc3c(cc2C)NC(=O)CO3)cc1 (stereo not given)	108	113
CCN1CCN(C(c2ccccc2)c2c(O)cc(C)n(CCOC)c2=O)CC1 (stereo not given)	109	111
Cc1ccsc1CN(Cc1ccco1)C(=O)c1ccc(Cl)cc1	110	101
Cc1ccc(Cn2c(CCCNC(=O)c3ccco3)nc3ccccc32)cc1	107	110
CSc1nc(Nc2ccc(C)cc2C)cc(-c2ccccc2)n1	108	104
NS(=O)(=O)c1ccc(NC(=O)COc2ccc(S(=O)(=O)NC3CCCCC3)cc2)cc1	110	112
CCOC(=O)c1c(NC(=O)c2cc3nc(-c4ccc(OC)cc4)cc(C(F)(F)F)n3n2)sc2c1CCC(C)C2 (stereo not given)	102	109
CC(=O)N1CCOc2cc(S(=O)(=O)NC(C)c3ccccc3)c(Cl)cc21 (stereo not given)	108	107
Cc1ccccc1CSc1nc2ccsc2c(=O)n1CCC(C)C	102	107
CCOc1ccc(CNC(=O)Cn2c(=O)c3cccn3c3ccc(F)cc32)cc1	99	107
CCCN1C(=O)C2(c3ccccc31)c1c(oc3ccc(F)cc3c1=O)C(=O)N2CCCOC(C)C (stereo not given)	106	96
COc1ccc(C)cc1NC(=O)c1cc(S(=O)(=O)N2CCN(c3cccc(C)c3C)CC2)ccc1F	112	105
CCC(=O)N1CCc2cc(Br)cc(S(=O)(=O)CCC(=O)N3CCN(c4cc(C)ccc4C)CC3)c21	106	109
COc1ccc(NC(=O)CSc2nc3ccccc3n2CC(=O)NCc2ccc(F)cc2)cc1	108	112
COc1ccc(-c2nc3scc(CCNS(=O)(=O)c4ccc(F)c(C(F)(F)F)c4)n3n2)cc1OC	104	113
Cc1ccc(CN(C(=O)c2ccc(OCC(C)C)cc2)c2ccccn2)o1	104	100
CN(c1ncnc2c1c(-c1ccccc1)cn2-c1ccc(F)cc1)C1CCCCC1	97	94
O=C(NC1CCCCC1)c1cc(Nc2ccccc2)nc2ccccc12	106	107
Cc1nn(CC(=O)N2CCC(C)CC2)c(=O)c2cc3occc3n12	107	110
COc1ccc(N(Cc2nnc3n2CCCCC3)C(=O)Nc2ccc(Cl)cc2)cc1Cl	110	119
O=C(COc1ccccc1)Nc1ccc2nc(SCC(=O)N3CCc4ccccc43)sc2c1	103	105
COc1ccc(N2CCN(C(CNS(=O)(=O)c3ccc(OC)c(C)c3)c3ccco3)CC2)cc1 (stereo not given)	108	115
Cc1c(-c2nc(-c3ccc4c(c3)OCO4)no2)nnn1-c1ccc(Br)cc1F	113	117
Cc1ccc(CN2CCCn3nc(C(=O)NCCC(C)C)cc3C2=O)cc1	101	103
COc1ccccc1N1CCN(c2ccc3cc(S(=O)(=O)N4CCCCC4)ccc3n2)CC1	114	108
CCOC(=O)c1ccc(NC(=O)CSc2nc3c(cc2C#N)N2CCC3CC2)cc1	108	111
Cc1ccc(NC(=O)Cn2ncn3c(cc4ccccc43)c2=O)c(C)c1	108	110

3 structures out of the list, sorted by number of heavy atoms, high to low.
SMILES	Polio RdRp inh	Polio RdRp inh intensity
COc1ccc(-c2nc3scc(CCNS(=O)(=O)c4ccc(F)c(C(F)(F)F)c4)n3n2)cc1OC	104	113
COc1ccc(N(Cc2nnc3n2CCCCC3)C(=O)Nc2ccc(Cl)cc2)cc1Cl	110	119
Cc1nn(CC(=O)N2CCC(C)CC2)c(=O)c2cc3occc3n12	107	110

Remaining list, next part.
SMILES	Polio RdRp inh	Polio RdRp inh intensity
CCOC(=O)c1cc2c(=O)n3ccccc3nc2n(CCCOC)c1=NC(=O)C(C)(C)Oc1ccc(Cl)cc1	105	109
CCC(C(=O)Nc1ccc(C(C)=O)cc1)n1c(C)c2cnn(-c3ccccc3)c(=O)c2c1C (stereo not given)	104	108
CCOC(=O)c1ccc(NC(=O)CCn2ccc(C)n2)cc1	100	104
CCCCCOC(=O)c1ccc(Nc2nc(C(=O)OCC)nc3ccccc23)cc1	104	106
COC(=O)CSc1nc2sc3c(c2c(=O)n1-c1ccccc1)C(C)CCC3 (stereo not given)	102	105
COc1ccc2c(c1)CC(C(=O)Nc1ccc(Br)c(C)c1)CO2 (stereo not given)	106	110
O=C(CSc1nc(=O)n(Cc2ccco2)c2c1CCC2)Nc1ccccc1C(F)(F)F	101	99
COc1cccc(CNC(=O)CSc2ncc(S(=O)(=O)c3ccc(C)c(Cl)c3)c(=O)[nH]2)c1	106	101
CCN1CCSc2ccc(C(=O)NCc3ccc(F)cc3)cc21	94	94
COc1cc(CN(C(=O)COc2ccc(Cl)c(C)c2)c2ccccn2)cc(OC)c1OC	103	108
Cc1nn(-c2ccc(N3CCCCC3)nn2)c(C)c1CCC(=O)NCc1ccccc1	107	99
CCOc1ccccc1NC(=O)N1c2ccccc2Sc2ccccc21	108	108
CCOC(=O)c1ccc(NC(=O)CCC(=O)N2Cc3ccccc3Oc3ncccc32)cc1	104	105
Cc1ccccc1C(=O)Nc1ccccc1-c1nc(-c2ccccc2)no1	104	106
CCOc1cc(C#N)c(NC(=O)c2ccc(OC)c(S(=O)(=O)N3CCCC3)c2)cc1OCC	105	106
Nc1nn(-c2ccccc2)nc1C(=O)OCc1c(F)cccc1Cl	105	111
Cc1cc(C)cc(NC(=O)Cn2nnc(C(=O)NCc3ccco3)c2N)c1	113	112
CCCCc1nn2c(=O)cc(COC(=O)c3ccccc3NC(=O)c3cccs3)nc2s1	109	109
CCOC(=O)c1c(C)oc2nc(C)nc(NCCc3ccc(OCC)c(OCC)c3)c12	100	104
Cc1ccc(S(=O)(=O)NCc2nc(-c3cccc(C)c3)no2)cc1	96	85
COc1ccccc1NC(=O)C1=C(C)Nc2nc(SCc3ccccc3C)nn2C1CC(C)C (stereo not given)	118	115
CC(NC(=O)c1ccccc1)c1nc2ccccc2n1Cc1ccc(Cl)cc1 (stereo not given)	110	111
CCCOc1ccc(CNC(=O)C2CCCN(c3nc4c(C)cc(C)cc4s3)C2)cc1 (stereo not given)	111	116
CCOc1ccc(-c2cccc(NS(=O)(=O)c3c(C)cc(C)cc3C)c2)nn1	104	101
CN(CC(=O)NCc1ccccc1)S(=O)(=O)c1ccc2[nH]c3c(c2c1)CCCC3	103	107
Cc1ccccc1CN1CCc2nc(N3CCN(c4ncccn4)CC3)ncc2C1	91	97
O=C(Nc1ccc(Cl)cc1)C1CCN(c2nc3ccccc3n3cccc23)CC1	98	103
Cc1cccc(N2CCN(C(=O)C3CCN(Cc4nc(-c5ccc(Cl)cc5)oc4C)CC3)CC2)c1C	104	112
O=S(=O)(c1ccccc1)c1nc(-c2ccccc2F)oc1N1CCOCC1	104	105
O=C(NCc1ccccc1Cl)C1CCCN(C(=O)c2cnn(-c3ccccc3)c2-n2cccc2)C1 (stereo not given)	107	110
COc1cc(C(=O)N(Cc2ccc(N(C)C)cc2)CC2CCCO2)cc(OC)c1OC (stereo not given)	103	107
Cc1ccc(Cl)cc1N1CCN(S(=O)(=O)c2ccc3c(c2)CC(=O)N3C)CC1	106	106
COc1cc(-c2noc(-c3ccc(N4CCCCC4)c([N+](=O)[O-])c3)n2)cc(OC)c1OC	115	115
CCOc1ccc(NC(=O)Cn2cc(C(=O)c3ccc(CC)cc3)c(=O)c3cc(OC)c(OC)cc32)cc1	109	108
Cc1cccc(N2CCN(S(=O)(=O)c3cc(Br)cc4c3N(C(=O)C3CC3)CC4)CC2C)c1 (stereo not given)	102	104
Cn1nc(C(=O)N2CCN(c3ccc(Cl)cc3)CC2)c2c1-c1ccccc1S(=O)(=O)C2	112	109
Cc1ccc(CNC(=O)c2ccc3c(c2)N(Cc2cccc(C)c2)C(=O)CS3)cc1	105	107
O=C(Cn1cc(SCc2ccc(F)cc2)c2ccccc21)N1CCCCC1	119	108
O=C(Cn1ccn(-c2ccc(F)c(F)c2)c(=O)c1=O)NCCc1ccccc1	100	108
O=C(NC1CC(=O)N(c2ccccc2)C1)c1ccc(S(=O)(=O)N2CCCC2)cc1 (stereo not given)	108	93
CCOC(=O)c1sc(N2C(=O)c3oc4ccccc4c(=O)c3C2c2ccc(C(C)(C)C)cc2)nc1C (stereo not given)	107	106
CC(C)Sc1ncc(Cl)c(C(=O)Nc2c(C(=O)Nc3ccccc3)oc3ccccc23)n1	112	115
CC1CCCCN1Cc1c(O)ccc2c(=O)c(-c3ccccc3Cl)c(C(F)(F)F)oc12 (stereo not given)	105	110
COC(=O)C1CCN(c2csc3ccc(Cl)cc3c2=O)CC1	107	101
COc1cc(NC(=O)c2noc3c2CC(C)CC3)c(OC)cc1Cl (stereo not given)	103	111
COc1ccc(CCNC(=O)c2cc3c(=O)n(C)c4cc(Cl)ccc4c3s2)cc1OC	104	104
